Calb FLC: C. albicans growth modulation with fluconazole | C. albicans CaCi-2 (fluconazole-resistant clinical isolate) + fluconazole, Alamar Blue growth, 48 h | growth inhibition, % (concentration not given with the values) | hit rate 0.57% among 300,000;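 active = most replicates above 75%; inconclusive = exactly half above 75%; inactive = most below 75%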;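 note: all wells also contain fluconazole at 8 µg/ml as a sub-toxic cotreatment; 0% = median of DMSO wells and 100% = median of geldanamycin control wells; wells of about 8 µL received 7.5 nL stock; the first replicate is given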
ALR H2O2 inh: inhibitors of human sulfhydryl oxidase ALR; P55789; purified ALR, DTT oxidation, H2O2 HRP-luminol luminescence; inhibition, % (no concentration beside the values); hit rate 3.8% among 290,000; AID 485317;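 active = mean and each replicate at 75% or more; inconclusive = only one of the two met; inactive = neither met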;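 note: stock transfer was 7.5 nL into about 7.5 µL; 0% = neutral wells and 100% = wells with inactivated enzyme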
Target sequence (P55789 whole entry, looked up): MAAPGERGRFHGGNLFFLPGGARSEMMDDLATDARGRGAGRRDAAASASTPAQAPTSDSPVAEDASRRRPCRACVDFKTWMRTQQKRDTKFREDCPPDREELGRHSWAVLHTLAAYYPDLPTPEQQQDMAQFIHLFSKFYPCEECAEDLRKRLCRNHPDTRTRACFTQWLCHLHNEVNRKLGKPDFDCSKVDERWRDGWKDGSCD
LANA-H2A inh: blocks KSHV LANA binding to histone H2A/H2B; cell-free LANA-H2A/H2B peptide, fluorescence polarization; AID 2629; hit rate 0.6% among 320,000; Q9QR71; inhibition, % (concentration not given with the values); in the data active = inhibition mostly above about 10%, no sharp cut-off; inactive = mostly below about 6.7%;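 note: stock transfer was 7.5 nL into about 10 µL; 0% = median of vehicle wells and 100% = median of positive control wells; one replicate is shown; the record names a cut of 25% in any replicate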
Vif A3G: inhibitors of Vif binding to APOBEC3G peptide, primary screen, biochemical, TR-FRET, GST-Vif 1-94, biotin-A3G peptide, dose response retest (AID 1117319); hit rate 0.57% among 260,000; inhibition, %, or IC50 in µM where a hit was titrated; TR-FRET GST-Vif / biotin-A3G peptide binding; higher % means a stronger effect; test concentration not given here; strong numbers were not always called active;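 active = above the screen mean plus three standard deviations and confirmed in dose response; inconclusive = results disagree or hit not tested in dose response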;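 note: Vif residues 1-94 fused to GST binding biotinylated APOBEC3G peptide 110-148; 0% = full assay without inhibitor and 100% = GST in place of GST-Vif; retest series ran down from 100 µM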
RanGTP-Imp inh: disruptors of Ran-importin-beta complex formation – biochemical, FRET, CFP-Ran, YFP-importin-beta, homogeneous, primary screen; hit rate 1.1% among 300,000; cell-free CFP-Ran/YFP-importin-beta FRET ratio; inhibition, % (test concentration not listed);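 active = most replicates above 15%; inconclusive = exactly half above 15%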;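 note: 0% = DMSO wells and 100% = Ran loaded with GDP instead of GTP; wells of about 40 µL received 100 nL stock; the first replicate is given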
HNF4A DNA FP: change in binding of human HNF4 alpha to DNA; P41235; hit rate 0.3% among 360,000; AID 1224865; HNF4a-FITC DNA binding, fluorescence polarization, 1 h; activity change, % at 10 µM; in the data active = activity change above about 30%, passing the limit was not always enough;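 note: controls were the assay level and a saturating level of protein; the project sought stronger binding though the title names inhibitors; some compounds called inactive have numbers as strong as hits; positive values seem to mean higher polarization but the record does not say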
Target sequence (P41235 whole entry, looked up): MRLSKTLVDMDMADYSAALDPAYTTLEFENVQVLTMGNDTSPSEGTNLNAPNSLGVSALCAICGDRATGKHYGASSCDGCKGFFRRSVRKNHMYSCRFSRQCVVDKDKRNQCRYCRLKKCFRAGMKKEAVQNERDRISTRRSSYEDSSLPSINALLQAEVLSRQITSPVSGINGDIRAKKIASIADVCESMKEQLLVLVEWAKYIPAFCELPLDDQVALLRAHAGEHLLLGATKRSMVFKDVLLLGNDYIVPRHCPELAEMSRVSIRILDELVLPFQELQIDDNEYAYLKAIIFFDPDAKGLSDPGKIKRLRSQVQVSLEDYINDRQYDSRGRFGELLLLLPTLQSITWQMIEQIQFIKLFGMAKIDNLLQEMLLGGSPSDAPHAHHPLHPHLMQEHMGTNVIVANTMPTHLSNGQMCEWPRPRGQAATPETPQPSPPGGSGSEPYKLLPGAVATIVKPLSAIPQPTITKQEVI
Beta2AR agonist: human beta-2 adrenergic receptor agonism by FAP | P07550 | Am2.2-beta2AR cells, FAP receptor internalization, flow cytometry; reference of the scale not given here | response, % (no concentration beside the values) | hit rate 0.43% among 340,000 | AID 504454;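 active = response above a set limit, near 3 SD of response in nonfluorescent compounds, cut at about 42% in these data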;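 note: stock transfer was 100 nL into about 11 µL; a reference agonist was the positive control; negative values mostly stem from fluorescent compounds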
* marks the source's active call; other numbers are inactive results; ? = inconclusive; . = not tested or not shown; & = joins results of further samples. Compounds were not picked by outcome; overall some 6.3% were active at least once.

SMILES	HNF4A DNA FP	ALR H2O2 inh	Calb FLC	Vif A3G	LANA-H2A inh	RanGTP-Imp inh	Beta2AR agonist
Cc1c(C#N)c2ccccc2n1CC(=O)N1CCCc2ccccc21	0.1	3	-4	11%	1.7	-1.5	2
Cc1cc(/C=C2\NC(=S)NC2=O)c(C)n1-c1cccnc1	-4.1	-12	4	16%	1.2	9.3	0
COc1cc(/C=N/NC(=O)Cn2ccc(C(F)(F)F)n2)cc(OC)c1OC	3.3	9	19	-9%	2.6	-2.7	-5
CCCc1cc(NCCCO)n2c(nc3ccccc32)c1C#N	-3.9	-30	14	.	-6.0	30*	-8
O=C(C1=C(O)C(=O)N(CC2CCCO2)C1c1cccnc1)c1ccco1 (stereo not given)	1.4	-3	-6	5%	-5.0	0.7	-4
CCOc1ccc(OCCNC(=O)c2oc3ccccc3c2COC)cc1	0.8	0	.	7%	0.6	.	-11
O=S(=O)(NCc1ccc2c(c1)OCO2)c1cnc[nH]1	-1.5	-28	-7	4%	2.3	6.7	2
CCN(CC(=O)NCc1cccs1)C(=O)c1ccc(S(=O)(=O)Nc2ccccc2Cl)cc1	0.3	-26	.	2%	4.3	.	5
COc1cccc(CNC(=O)CSc2cc(=O)n(C)c3ccccc23)c1	6.1	-8	22	3%	6.3	-4.9	3
NC(=S)N/N=C1\CCOc2ccc(Cl)cc21	5.1	6	-17	-12%	-7.2	?	7
Cc1sc2nc(COC(=O)c3cccc(OC(F)F)c3)[nH]c(=O)c2c1C	2.3	-7	3	?	16	2.4	-4
c1ccc(-c2nc3c(ccc4ccccc43)[nH]2)nc1	6.0	-66	-2	3%	5.0	1.3	-22
COc1ccc(CNC(=O)c2c(C)cc(=O)oc2C)cc1	-0.2	1	19	-2%	4.6	0.5	1
COc1cccc(S(=O)(=O)NCc2ccc(C(=O)N3CCN(Cc4ccccc4)CC3)cc2)c1	-1.1	-3	7	.	7.4	6.8	-7
CN(C)c1ccnc2sc3c(=O)n(-c4ccccc4)cnc3c12	3.0	16	38	?	-2.9	4.9	-3
Cc1ccc(N2C(=O)c3ccc(C(=O)N4CCN(c5ccc(C)c(C)c5)CC4)cc3C2=O)cc1	0.3	-2	4	16%	-4.3	4.1	5
COc1ccc(/C(N)=N/OC(=O)C2CCCCC2)cc1OC	-0.4	7	-3	.	-0.3	0.7	-11
O=C1c2ccccc2C(=O)N1c1cccc2cccnc12	0.7	-6	-5	15%	1.0	-1.6	1
O=C1NC(=S)NC1=Cc1ccc2c(c1)CCC2	39*	.	.	11%	.	.	6
C=C1C(=O)O[C@@H]2[C@H]3O[C@]3(C)CC/C=C(\C)CC[C@@H]12	-2.0	-6	.	.	7.0	.	6
Cc1ccccc1NC(=S)N(Cc1cccs1)C1CCCCC1	2.2	-3	-25	-9%	2.4	2.0	11
CN(Cc1ccccc1)C(=O)c1ccccc1N(C)S(=O)(=O)c1ccccc1	-0.1	.	.	2%	.	.	-1
CN(Cc1ccccc1F)c1ccc(S(=O)(=O)N2CCCC2)cn1	0.3	-5	-14	-7%	0.0	0.2	5
CC1CCCC(C)N1C(=O)COC(=O)/C=C/c1ccc(Br)o1 (stereo not given)	-18	3	.	.	3.8	.	-5
C=CCSc1nc2sc3c(c2c(=O)[nH]1)CC(C)(CC)OC3 (stereo not given)	-0.8	-9	-19	7%	-4.0	5.2	6
Cn1c(SCC(=O)N2CCCC2)nnc1-c1ccc2c(c1)OCO2	0.3	-3	3	.	-4.6	?	0
CN1CCN(C(=S)Nc2cccc(S(=O)(=O)N(C)C)c2)CC1	-1.2	4	-17	.	0.3	2.7	0
CC[C@H](C)NC(=O)CCCCCn1c(=S)[nH]c2c([nH]c3ccc(OC)cc32)c1=O	5.4	.	-15	1%	-3.3	-0.7	17
CCOC(=O)Cn1cc(C#N)c2cccc(CC)c21	2.7	0	6	.	4.0	4.7	8
Fc1ccccc1-n1c(-c2ccc3ccccc3n2)n[nH]c1=S	1.4	.	1	-4%	-2.3	1.0	3
O=C(Nc1nnc(S(=O)(=O)N2CCCCCC2)s1)c1ccccc1Cl	3.0	.	-3	.	0.2	-4.8	1
Cc1ccccc1-n1c(SCC(=O)NCC2CCCO2)nc2c([nH]c3ccccc32)c1=O (stereo not given)	6.9	-6	-6	.	-3.7	-2.2	-5
O=C1c2ccccc2C(=O)C12OC2c1cccc2ccccc12 (stereo not given)	-0.6	30	1	-3%	-1.1	7.3	8
CC(CCO)Nc1nc2c(c(=O)n(C)c(=O)n2C)n1Cc1cccc(Br)c1 (stereo not given)	-3.3	16	12	?	-0.6	-2.2	0
C[C@H](NC(=O)c1[nH]cnc1C(=O)Nc1ccc(Cl)cc1)c1ccccc1	-2.1	-14	.	.	-3.4	.	-10
C[C@@H]1CN([C@@H](C)CO)C(=O)c2cc(NC(=O)C3CC3)ccc2O[C@@H]1CN(C)Cc1ccc(Cl)c(Cl)c1	1.1	.	.	-3%	-2.8	.	1
C=CCN(Cc1ccc(OC)c(OC)c1)C(=O)c1cc2cc(F)ccc2[nH]1	-2.5	-10	7	0%	-1.4	2.0	0
O=C(COC(=O)c1ccco1)Nc1cc(S(=O)(=O)N2CCCCC2)ccc1Cl	-4.4	-1	.	.	0.8	.	0
C/C(CC(=O)Nc1ccc(C)c(Cl)c1)=N\NC(=O)c1cccc(O)c1	1.7	59	-32	.	-0.9	2.8	2
O=C(O)c1cc(-c2ccc(/C=C3\NC(=O)N(c4ccc(Cl)cc4)C3=O)o2)ccc1Cl	-35	16	-18	23%	9.9	8.8	14
CN(Cc1cn[nH]c1-c1ccc(-c2ccccc2)cc1)CC1CCOCC1	-4.1	.	3	-5%	-6.1	-0.6	4
COc1ccccc1N1CCN(C2CCCN(Cc3ccccc3OCCO)C2)CC1 (stereo not given)	3.8	26	-2	.	1.4	4.5	-2
COc1ccc(Nc2ncnc3sc(-c4ccccc4)cc23)c(OC)c1	-2.5	-9	1	-26%	-1.2	12	-1
Cc1ccc(SC(C)C(=O)N2CCCC2)cc1 (stereo not given)	-0.1	-6	28	16%	-0.5	4.3	3
Cc1nnc(SCC(=O)Nc2sc3c(c2C(=O)c2ccccc2)CCCC3)s1	-0.3	7	18	.	-1.5	10	6
Cc1cc(NC(=O)c2cccc(C)c2[N+](=O)[O-])no1	-3.2	-4	3	.	-4.6	-1.3	2
CCCCN1C(=O)N(CCc2ccc(F)cc2)S(=O)(=O)c2cc(C(F)(F)F)ccc21	1.7	.	.	-5%	.	.	-4
Cc1cccc(C)c1OCC(=O)N/N=C/c1ccc2c(c1)OCO2	-2.3	-8	-6	5%	-0.8	1.1	2
CN(Cc1c(F)cccc1Cl)C(=O)CNC(=O)c1cccs1	-1.5	0	2	-6%	-1.5	?	-3
O=C(Nc1cccnc1)c1ccc(NS(=O)(=O)c2cc([N+](=O)[O-])ccc2Cl)cc1	-2.4	-15	38	30%	5.0	9.9	-6
CCOc1ccccc1C1C(C(=O)OC)=CN(C)C=C1C(=O)OC	-1.0	-1	-2	-4%	3.5	118*	-1
COc1ccc(C(C(=O)NC2CCCCC2)N(C(=O)c2ccco2)c2ccccc2C(C)=O)cc1 (stereo not given)	-1.7	24	2	.	-2.3	1.7	2
O=C(NCc1ccccn1)C(F)(F)C(F)(F)C(=O)NCc1ccccn1	1.2	-1	-5	0%	-4.7	6.1	-7
O=S(=O)(c1ccc(SCc2ccccc2)nc1)N1CCCCC1	-3.5	4	.	1%	2.1	.	-2
COc1ccc(Cl)cc1NC(=O)Nc1ccc(C(=O)N2CCCC2)cc1	-1.7	-4	-10	.	-0.3	7.1	23
CC(C)Sc1nc2c([nH]c3ccccc32)c(=O)n1C	-0.1	7	38	1%	1.0	3.4	4
C/C=C/c1ccc(OCC(=O)Nc2cc(C(F)(F)F)ccc2N2CCOCC2)c(OC)c1	1.9	-9	-6	.	-2.0	4.6	-8
O=C(C1COc2ccccc2O1)N1CCN(c2ccccc2Cl)CC1 (stereo not given)	-1.4	4	13	-2%	-1.3	3.0	1
COc1ccc(NC(=O)CN2C(=O)NC3(CCCc4ccccc43)C2=O)c(OC)c1 (stereo not given)	0.8	-4	.	.	-3.5	.	-7
O=C(NP(=O)(N1CCCC1)N1CCCC1)C1=C(N2CCOCC2)/C(=C/c2cccc([N+](=O)[O-])c2)CC1	1.8	-9	-2	?	-0.9	0.8	0

Going on with the list.
SMILES	HNF4A DNA FP	ALR H2O2 inh	Calb FLC	Vif A3G	LANA-H2A inh	RanGTP-Imp inh	Beta2AR agonist
O=C(Nc1cccc(Oc2c(F)c(F)c(F)c(F)c2F)c1)N1C[C@@H]2C[C@@H](C1)c1cccc(=O)n1C2	-0.8	-8	12	3%&1%	-6.6	6.3	-2
CC(C)(C)C(=O)c1cnc(Nc2ccccc2Cl)s1	-1.0	.	2	3%	-3.0	5.6	-10
Cc1cc(NC2CCCCC2)n2c(n1)nc1ccccc12	0.6	-6	11	3%	8.8	7.1	7
COc1ccsc1C(=O)N1CCN(Cc2ccc3c(c2)OCO3)CC1	-2.8	1	7	17%	-0.9	1.6	4
Cc1ccc2[nH]c3c(N4CCN(Cc5ccccc5)CC4)ncnc3c2c1	-3.3	12	61	-6%	-4.7	2.3	21
Cc1c(C)c2ccc(OCC(=O)N3CCC(C(=O)O)CC3)cc2oc1=O	1.6	-1	1	.	2.0	-2.2	3
COc1ccc(CNC(=O)COC(=O)c2c(-c3c(F)cccc3Cl)noc2C)cc1OC	-0.4	-4	-5	2%	-4.5	0.6	-7
CCOC(=O)c1c(-c2ccc(C)o2)csc1NC(=S)NC(=O)N(C)C	1.1	-1	23	12%	3.6	-6.4	3
COc1ccc(N2CCN(C(=O)CN3C(=O)NC4(CCCCC4C)C3=O)CC2)cc1 (stereo not given)	-1.6	33	.	-2%	2.0	.	-5
CCCCN(Cc1ccccc1)c1ncnc2nc[nH]c12	4.9	0	-1	0%	0.1	-2.2	2
CCOc1ccc(N(CC(=O)Nc2nccs2)S(=O)(=O)c2c(C)[nH]c(=O)[nH]c2=O)cc1	-0.1	.	24	-1%	-0.2	-1.6	-18

Screening data: PubChem, several laboratories
